VACV mCherry inh: inhibitors of vaccinia virus infection (mCherry reporter signal); Vaccinia virus mCherry reporter infection, fluorescence; about a quarter of the inactives have no number; Potency, µM (series often up to 36.5 µM), inactives show top-dose activity change, negative = inhibition, usual class: inhibitors; 0.63% of 310,000 active; AID 720579; active = well fitted inhibition curve with a large enough effect; inconclusive = small, poorly fitted or top-dose-only effect; inactive = no such curve, though single readings can be large or run the other way; tested in A549 cells; further: nearly all actives have a fitted effect of over 35% in size; inactives centre near -10
VACV Venus inh: inhibitors of vaccinia virus (Venus reporter); Vaccinia virus Venus reporter expression, fluorescence; 0.46% of 330,000 active; Potency, µM (top dose mostly 36.5 µM), for inactives: at the top dose activity change, negative = inhibition, actives largely listed as inhibitors; active means well fitted inhibition curve with a large enough effect; inconclusive means small, poorly fitted or top-dose-only effect; inactive means no such curve, though single readings can be large or run the other way; tested in A549 cells; further: nearly all actives have a fitted effect of over 30% in size; inactives centre near -10
* hit, by the source's call; i = inactive; ? = inconclusive; / = not tested or not shown; & = joins results of further samples; [ ] = dose if it differs, or a comment. On the % scale 0 is the no-effect control and ±100 the full control effect; potency means the concentration at half of the fitted maximal effect.

SMILES	VACV mCherry inh	VACV Venus inh
COc1cccc(OCC(O)CNC(=O)c2oc3ccc(C)cc3c2C)c1 (configuration not stated)	i	-12%
O=C(C1Cc2ccccc2CN1S(=O)(=O)c1ccccc1[N+](=O)[O-])N1CCOCC1 (configuration not stated)	i	-7%
Nc1[nH]ncc1C(=O)Nc1cccc(C(F)(F)F)c1	i	-24%
Cc1ccc(NCN2C(=O)c3ccccc3C2=O)c(C)c1	/	6%
NS(=O)(=O)c1ccc(NC(=O)C2Cc3ccccc3N2C(=O)c2ccccc2)cc1 (configuration not stated)	-2%	-5%
O=C(NNC(=O)c1cc2cc3ccccc3nc2s1)c1cccc(C(F)(F)F)c1	/	-5%
CCOC(=O)c1c(NC(=O)CSc2nnc(C)c(=O)[nH]2)sc(C)c1-c1ccc(C)cc1	-9%	-21%
CN(CC(=O)Nc1ccc(Cl)cc1)C(=O)C1=COCCO1	-15%	-10%
CC(=O)O[C@@H]1[C@H]2[C@@H](C[C@@H](C)[C@@H]3CCC(=O)[C@@]13C)OC(=O)[C@@H]2C	i	-2%
COc1ccc(S(=O)(=O)N(C)C[C@H]2Oc3ccc(NC(=O)C4CCCCC4)cc3C(=O)N([C@H](C)CO)C[C@@H]2C)cc1	-15%	-29%
CCOCCc1c(O)nc(SCC(=O)N2CCOCC2)[nH]c1=O	-14%	11%
CC(=O)Nc1ccc(S(=O)(=O)NCc2cn3ccsc3n2)cc1	-2%	-3%
Cc1ccc(NC(=O)COc2coc(CN3c4ccccc4CC3C)cc2=O)c(C)c1 (configuration not stated)	-3%	-18%
O=c1[nH]c(NCc2ccccc2)nc2c1CCC2	-28%	-18%
CCn1c(=O)c2ccccc2n(Cc2cccc(C)c2)c1=O	i	-11%
O=C(Cn1nc(-c2ccc(F)cc2)ccc1=O)Nc1ccc2c(c1)OCCO2	-10%	-13%
O=C(C(=Cc1ccccc1)CN1CCCCC1)c1ccccc1	-27%	?
O=C(COC(=O)CCc1c[nH]c2ccccc12)Nc1cc([N+](=O)[O-])ccc1Cl	i	-1%
CCn1c(SCC(=O)Nc2ccccc2N2CCOCC2)nnc1-c1ccccc1O	/	-15%
COC(=O)CCC(=O)Nc1ccccc1C(=O)Nc1ccccc1	/	-23%
O=C(CNC1CCCCC1)Nc1cccc([N+](=O)[O-])c1	-4%	0%
COc1ccc(C2(C)NC(=O)N(CC(=O)Nc3cccnc3Cl)C2=O)cc1 (configuration not stated)	-8%	6%
Nc1nc(-c2nonc2N)no1	i	-6%
O=C(Nc1ncc(Cc2ccc(C(F)(F)F)cc2)s1)c1ccc(-c2cccc([N+](=O)[O-])c2)o1	?	-29%
Cc1nn(CC(C)C)c(Cl)c1C(=O)NC1CCCC1	-1%	-9%
CC(Sc1nc2nn(-c3ccccc3)c(=O)c-2c2n1CCCCC2)C(N)=O (configuration not stated)	/	-15%
O=C(Nc1ccccc1O)c1ccc2c(c1)C(=O)N(c1ccccc1)C2=O	-8%	-5%
CCOC(=O)c1c(C)[nH]c(C(=O)N/N=C/c2cc([N+](=O)[O-])ccc2O)c1C	i	-9%
Cc1ccc(OCC(=O)NNC(=O)C2CCN(c3ncccn3)CC2)cc1	-13%	-2%
O=C(CSc1nc(=O)[nH]c2c1CCCC2)NCc1ccc(F)cc1	-5%[7.34 µM]	-3%[7.34 µM]
Cc1nc(-c2ccc(NC(=O)c3ccc(Br)o3)cc2)cs1	-5%	-10%
CCOc1cc(CN2CCN(C(=O)c3ccco3)CC2)ccc1OC	/	-16%
COc1ccc2[nH]cc(CCN=C(NC(=O)c3cccc(Cl)c3)Nc3nc(C)cc(C)n3)c2c1	-28%	-13%
CC(C)(C)NC(=O)C(c1ccc(F)cc1)N(C(=O)CCC(=O)Nc1ccccn1)C1CCCC1 (configuration not stated)	-16%	3%
CCOc1cccc(CNc2ccc(O)cc2)c1OCc1ccc(Cl)cc1	24%	21%
CCOC(=O)C1C(=O)N(O)CC1c1cccc(Oc2ccccc2)c1 (configuration not stated)	-15%	-5%
COc1ccc(C)cc1NC(=O)c1ccc2c(SCC(=O)O)c3c(nc2c1)CCCC3	6%&8%	6%&1%
O=C(Cc1ccc(NC(=O)C2CCN(C(=O)CCc3ccccc3)CC2)cc1)Nc1ccc(C(=O)N2CCOCC2)cc1	i	-3%
Cc1noc(/C=C/c2ccco2)c1S(=O)(=O)N1CCC(C(=O)NC(C)c2ccccc2)CC1 (configuration not stated)	-16%	-12%
Cc1cccnc1NC(=O)c1cccc(S(=O)(=O)N2CCN(c3ccc(F)cc3)CC2)c1	?	-22%
CCc1cc2c(=O)n3c(nc2s1)-c1[nH]c2ccc(OC)cc2c1CC3	-16%	-10%
CCCCNC(=O)C1CC(=O)N(C2CCCCC2)C1 (configuration not stated)	0%	-16%
NS(=O)(=O)c1ccc(NC(=O)NC2CC(=O)N(c3ccc4c(c3)OCCO4)C2)cc1 (configuration not stated)	-11%	-3%
O=C1c2ccccc2NC(c2ccco2)N1/N=C/c1ccco1 (configuration not stated)	i	5%
Cc1cccc(NC(=O)COC(=O)c2cc(C)oc2C)c1	-7%	0%
O=C1/C(=C/c2ccco2)CCc2ccccc21	i	-12%
C#CCNC(=O)C1=C[C@@H](c2ccc(Br)cc2)C[C@@H](OCCCCO)O1	-14%	-12%
CC(C)(C)c1ccc(CCC2OCC(C[N+]3(C)CCOCC3)O2)cc1 (configuration not stated)	-15%	-3%
CCN(CC)CCN=C1CCCc2ccccc2N1	/	-15%
CC(Oc1cc(C(F)(F)F)cc(C(F)(F)F)c1)C(=O)NC(N)=O (configuration not stated)	-15%	-13%
O=C1OC2CC3CC1CC(O)(C3)C2 (configuration not stated)	-3%	-6%
CCc1ccc(-n2c(=O)c3ccc(C(=O)NCCc4ccccc4)cc3n(CC(N)=O)c2=O)cc1	-27%&1%	-17%&-10%
CCn1cc(CN2CCCC(CNS(=O)(=O)c3cccc4cccnc34)C2)cn1 (configuration not stated)	-4%	0%
COCCNC(=O)C1CCCN(C(=O)c2nc3ccccc3s2)CC1 (configuration not stated)	i	4%
CCC(C)(C)n1nnnc1CN(Cc1ccco1)Cc1cc2cc3c(cc2[nH]c1=O)OCO3	-14%	-5%
COC(=O)c1ccccc1NC(=O)c1cc(-c2ccc(O)cc2)on1	-1%	-10%
CCOC(=O)CSc1ccc(S(=O)(=O)N2CCCCC2)cc1[N+](=O)[O-]	-4%	10%
CCOC(=O)C1CCN(C(=O)C2CCC(=O)N(CC3CCCCC3)C2)CC1 (configuration not stated)	i	-21%
Cc1cccc(OCC2Cn3c(nc4c3c(=O)[nH]c(=O)n4C)O2)c1 (configuration not stated)	?	?
Cn1c(=O)oc2cc(S(=O)(=O)N3CCCC(C(=O)N4CCc5ccccc5C4)C3)ccc21 (configuration not stated)	8%	-12%

Next compounds.
SMILES	VACV mCherry inh	VACV Venus inh
COc1cccc(-n2c(SCC#N)nnc2-c2cnccn2)c1	-12%	-10%
COC(=O)[C@@]12C[C@@H](CC(=O)NCc3ccccc3)C(=O)N(Cc3ccccc3)C1=CCC(C)(C)C2	?	-23%
CCOC(=O)c1cc2c(nc1NC(=S)Nc1ccccc1)CC(C)(CC)OC2 (configuration not stated)	i	-12%
O=c1ccc2ccccc2o1	-6%	-19%&-14%
CC1(C(=O)O)CCCN(C(=O)c2ccc3c(c2)C(C)(C)CCC3(C)C)C1 (configuration not stated)	7%	3%
Cc1cc(Br)cc(Cl)c1OC(=O)c1ccncc1	i	-1%
COc1ccc2c(CCNC(=O)c3ccc([N+](=O)[O-])cc3)c[nH]c2c1	-26%	-21%
CC1CCN(CCOCCSc2ccc(Cl)cc2)CC1	-7%	-11%
Cc1ccc(-c2nnc(SCC(=O)NC3CCCC3)n2N)cc1	i	-11%
CCCc1cc(=O)[nH]c(SCc2nc(-c3ccc(OCC)cc3)no2)n1	-8%	-8%
Clc1ccc(COC(Cn2ccnc2)c2ccc(Cl)cc2Cl)c(Cl)c1 (configuration not stated)	-9%&-5%	-28%&-15%&-10%
O=C(CNC(=O)c1ccccc1)N/N=C/c1cn[nH]c1-c1ccccc1	-16%	-17%
C=C(C)COc1ccc(-c2nc(N)ncc2-c2ccc(OC)c(OC)c2)c(O)c1	-11%	-27%
CCOc1ccccc1-n1cnc2cc(C(=O)NCc3ccco3)ccc21	/	-27%
O=C(C1CCN(S(=O)(=O)c2ccc(Br)s2)CC1)N1CCCCC1	i	-18%
O=C(NCCCN1CCCCCC1)c1cc2c(=O)oc3ccccc3c2s1	-12%	2%
CSc1ccc(C(=O)C2CCCN(Cc3cc4ccccc4[nH]3)C2)cc1 (configuration not stated)	?	-22%
NNC(=O)CNC(=O)Nc1n[nH]c(=S)s1	55%[activator]	4%
Cc1cc(C)nc(N/N=C2/CCCC/C2=C\c2ccccc2)n1	?	-29%
O=C(Cn1cnc2scc(-c3cccc([N+](=O)[O-])c3)c2c1=O)NCc1ccco1	-8%	-14%
CN(C)S(=O)(=O)c1cccc(C(=O)Nc2ccc(N3CCOCC3)cc2)c1	i	-3%
O=[N+]([O-])c1ccc(/C=N/N/C(=N/c2ccccn2)c2ccccn2)cc1	i	-2%
CCn1c(O)c(C(c2ccccn2)c2c(O)n(CC)c(=S)[nH]c2=O)c(=O)[nH]c1=S	-8%	10%
COCCNc1ccnc(-c2c(C)noc2C)n1	38%[activator]	1%
O=c1oc2cc(Br)ccc2n1Cc1ccccc1	-13%	-4%
O=C(CCN1C(=O)/C(=C/c2cccs2)SC1=S)Nc1ccc(O)cc1	-13%	13%
COc1cc2sc3ccc(C#CC4(O)CCCCC4)cc3c(=O)c2cc1OC	i	?
CN(C(=O)COc1ccc(Cl)cc1Cl)C1(C)CCS(=O)(=O)C1 (configuration not stated)	i	-18%
O=C(Cc1ccc([N+](=O)[O-])cc1)NCc1cccnc1	i	-13%
O=C(N/N=C/c1c[nH]c2ccccc12)c1ccc(Cl)cc1	-21%	-20%
Cn1c(SCc2cccc(C#N)c2)nc2ccccc2c1=O	i	-11%
COc1ccc(OC)c(S(=O)(=O)N2CCC(C(=O)NC3CCCCC3)CC2)c1	-11%	-9%
CCn1c(-c2csc3ccccc23)n[nH]c1=S	-9%	-21%
NC(=O)CCCSc1nc2ccccc2[nH]1	i	-8%
COc1ccc(OC)c(C(=O)c2ccc(C(=O)Nc3ccc(NC(C)=O)cc3)cc2)c1	i	-13%
O=C(/C=C/c1ccccc1)c1c[nH]c2ccccc12	-21%[7.34 µM]	-18%[7.34 µM]
COc1ccccc1-c1nnc(NC(C)=O)s1	i	-6%
CCc1ccc(C(c2c(C)nn(-c3ccccc3)c2N)c2c(C)nn(-c3ccccc3)c2N)cc1	-22%	-13%
O=C(NCCSc1c[nH]c2ccccc12)c1ccc(Cl)cc1	0%	-8%
COc1ccccc1C1=NOC(C)(c2sc(-c3ccccc3)nc2C)C1 (configuration not stated)	10%	-9%
O=C(O)CC(NC(=O)C12CC3CC(CC(C3)C1)C2)c1ccc(OC2CCCC2)cc1 (configuration not stated)	-3%	5%
Cn1c(SCC(=O)NCCc2ccccc2)nnc1C1CCCCC1	-8%	-9%
Fc1ccc(-c2nc3ccc(Cl)cn3c2Cc2ccsc2)cc1	14%	-2%
O=C(/C=C/c1cccc([N+](=O)[O-])c1)N1CCN(c2ccc(F)cc2)CC1	-12%	-13%
CCc1nnc(NC(=O)CN2C(=O)c3ccccc3C2=O)s1	-15%	-10%
COc1ccc(C(=S)N2CCN(c3ccccc3C)CC2)cc1	?	-22%

In the list so far, 16 contain an aryl thioether with sulfur outside any ring:
SMILES	VACV mCherry inh	VACV Venus inh
CCOC(=O)c1c(NC(=O)CSc2nnc(C)c(=O)[nH]2)sc(C)c1-c1ccc(C)cc1	-9%	-21%
CCOCCc1c(O)nc(SCC(=O)N2CCOCC2)[nH]c1=O	-14%	11%
CCn1c(SCC(=O)Nc2ccccc2N2CCOCC2)nnc1-c1ccccc1O	/	-15%
CC(Sc1nc2nn(-c3ccccc3)c(=O)c-2c2n1CCCCC2)C(N)=O (configuration not stated)	/	-15%
O=C(CSc1nc(=O)[nH]c2c1CCCC2)NCc1ccc(F)cc1	-5%[7.34 µM]	-3%[7.34 µM]
COc1ccc(C)cc1NC(=O)c1ccc2c(SCC(=O)O)c3c(nc2c1)CCCC3	6%&8%	6%&1%
CCOC(=O)CSc1ccc(S(=O)(=O)N2CCCCC2)cc1[N+](=O)[O-]	-4%	10%
COc1cccc(-n2c(SCC#N)nnc2-c2cnccn2)c1	-12%	-10%
CC1CCN(CCOCCSc2ccc(Cl)cc2)CC1	-7%	-11%
Cc1ccc(-c2nnc(SCC(=O)NC3CCCC3)n2N)cc1	i	-11%
CCCc1cc(=O)[nH]c(SCc2nc(-c3ccc(OCC)cc3)no2)n1	-8%	-8%
CSc1ccc(C(=O)C2CCCN(Cc3cc4ccccc4[nH]3)C2)cc1 (configuration not stated)	?	-22%
Cn1c(SCc2cccc(C#N)c2)nc2ccccc2c1=O	i	-11%
NC(=O)CCCSc1nc2ccccc2[nH]1	i	-8%
O=C(NCCSc1c[nH]c2ccccc12)c1ccc(Cl)cc1	0%	-8%
Cn1c(SCC(=O)NCCc2ccccc2)nnc1C1CCCCC1	-8%	-9%

Screens: PubChem BioAssay, National Center for Advancing Translational Sciences (NCATS)
